High-throughput results (PubChem BioAssay)
T cruzi inh: T. cruzi replication inhibition. inhibition, % (concentration not given with the values). T. cruzi beta-gal in NIH3T3, luminescence, 90 h. 1.4% of 300,000 active. AID 1885;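 active = mean inhibition across valid replicates above about 55%, limit read from the data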;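 also: signal also drops with host cell toxicity which is not excluded here; 0% = plate median of DMSO wells and 100% = zero luminescence signal; higher percent means less beta-gal luminescence so fewer parasites; stock transfer was 50 nL into about 50 µL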
LANA-H2B inh: blocks KSHV LANA binding to histone H2A/H2B | cell-free LANA-H2A/H2B peptide, fluorescence polarization | inhibition, % (concentration not given with the values) | 0.6% of 320,000 active | Q9QR71 | AID 2629; in the data active = inhibition mostly above about 10%, no sharp cut-off; inactive = mostly below about 6.7%;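 also: stock transfer was 7.5 nL into about 10 µL; 0% = median of vehicle wells and 100% = median of positive control wells; one replicate is shown; the record names a cut of 25% in any replicate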
ALR H2O2 inh: blocks human ALR sulfhydryl oxidase activity; P55789; AID 485317; inhibition, % (no concentration beside the values); purified ALR, DTT oxidation, H2O2 HRP-luminol luminescence; 3.8% of 290,000 active;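 active = mean and each replicate at 75% or more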;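 also: stock transfer was 7.5 nL into about 7.5 µL; 0% = neutral wells and 100% = wells with inactivated enzyme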
Target sequence (P55789 whole entry, looked up): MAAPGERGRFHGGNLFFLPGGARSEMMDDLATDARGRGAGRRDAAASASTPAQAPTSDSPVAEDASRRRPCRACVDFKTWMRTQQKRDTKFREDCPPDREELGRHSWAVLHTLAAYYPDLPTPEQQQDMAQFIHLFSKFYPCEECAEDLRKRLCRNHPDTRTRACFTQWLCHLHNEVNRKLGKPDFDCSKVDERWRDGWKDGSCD
Bfl-1 A1 inh: inhibitors of the anti-apoptotic protein A1, read as caspase activation | MEF A1-2A-BIM cells, Caspase-Glo 3/7 luminescence, 3 h; percent of clofoctol response, vehicle zero | caspase activation, % (no concentration beside the values) | 0.066% of 330,000 active | AID 2462;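 active = over half of replicate activation scores above 10%, or exactly half above 10 with the replicate mean above 10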;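 also: wells of about 30 µL received 50 nL stock; many hits fall short of the cut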
Beta apoptosis: beta cell apoptosis inhibition; INS-1E cytokine-induced death, ATP luminescence, 48 h; percent of positive-control rescue, neutral wells zero; protection from apoptosis, % (concentration not given with the values); 0.8% of 300,000 active; AID 435005;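 active = all replicates at 75% or more, or half of them and the mean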;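 also: 0% = cytokine-treated negative control wells and 100% = positive control rescue; higher means more ATP so stronger rescue from cytokine killing; wells of about 40 µL received 100 nL stock; the first replicate is given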
Calb FLC: C. albicans growth modulation with fluconazole | AID 1979 | 0.57% of 300,000 active | C. albicans CaCi-2 (fluconazole-resistant clinical isolate) + fluconazole, Alamar Blue growth, 48 h | growth inhibition, % (concentration not given with the values);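 active = most replicates above 75%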;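 also: all wells also contain fluconazole at 8 µg/ml as a sub-toxic cotreatment; 0% = median of DMSO wells and 100% = median of geldanamycin control wells; wells of about 8 µL received 7.5 nL stock; the first replicate is given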
Beta2AR agonist: agonists of human beta-2 adrenergic receptor inducing internalization; response, % (test concentration not listed); Am2.2-beta2AR cells, FAP receptor internalization, flow cytometry; reference of the scale not given here; AID 504454; 0.43% of 340,000 active; P07550;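 active = response above a set limit, near 3 SD of response in nonfluorescent compounds, cut at about 42% in these data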;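 also: stock transfer was 100 nL into about 11 µL; a reference agonist was the positive control; negative values mostly stem from fluorescent compounds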
Target sequence (P07550 whole entry, looked up): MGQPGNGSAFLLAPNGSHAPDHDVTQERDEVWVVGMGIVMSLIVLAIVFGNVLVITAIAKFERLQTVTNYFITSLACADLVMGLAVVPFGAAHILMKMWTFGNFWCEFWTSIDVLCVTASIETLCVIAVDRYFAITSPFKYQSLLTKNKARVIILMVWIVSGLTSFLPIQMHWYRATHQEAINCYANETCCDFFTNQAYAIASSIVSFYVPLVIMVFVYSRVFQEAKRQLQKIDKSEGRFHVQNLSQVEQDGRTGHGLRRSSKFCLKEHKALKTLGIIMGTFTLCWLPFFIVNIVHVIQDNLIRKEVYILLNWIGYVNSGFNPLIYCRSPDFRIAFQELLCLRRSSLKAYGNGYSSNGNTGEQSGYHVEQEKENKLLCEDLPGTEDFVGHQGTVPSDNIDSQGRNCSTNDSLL
rRNA inh HTS: inhibits bacterial ribosomal RNA function over humanized ribosomes; E. coli WT GFP vs humanized-ribosome RFP mutants, fluorescence, 24 h; active compounds read low; DMSO median 0, no signal -100; AID 720706; GFP signal change (wild-type ribosome), % (no concentration beside the values); 1.6% of 350,000 active;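 active = significant combined selectivity score with lowered wild-type GFP, culture density cut under 30%, mutant RFP and density less affected; inactive = any of these conditions unmet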; also: one replicate is shown; some compounds called inactive have numbers as strong as hits
rRNA inh HTS OD600: recorded beside rRNA inh HTS, whose call it bears; OD600 change, %; measured here: OD600 growth;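 optical density of the mix in the first replicate; 0 = DMSO median and -100 = no signal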
rRNA inh HTS RFP: further read-out of rRNA inh HTS, marked with its call; RFP signal change, %; measured here: RFP humanized mutant strains;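 first replicate; 0 = DMSO median and -100 = no signal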
An asterisk follows results filed as active; / = no result given.

SMILES | LANA-H2B inh | T cruzi inh | Bfl-1 A1 inh | Calb FLC | Beta apoptosis | ALR H2O2 inh | Beta2AR agonist | rRNA inh HTS OD600 | rRNA inh HTS | rRNA inh HTS RFP
Clc1nc(-c2ccccc2)c2ccccc2n1 | -7.2 | 2 | 1.0 | 4 | -1 | 13 | 10 | 3 | 9 | 0.1
CCCc1ccc2oc(C(=O)N(C)Cc3cnccn3)c(C)c2c1 | 3.5 | 11 | 0.3 | 0 | 0 | -2 | -4 | -12 | -16 | -2.8
CCOc1ccccc1NC(=O)CSc1nnc2c(CC)c(C)nc(N)n12 | 3.6 | 1 | 0.5 | -9 | 0 | 3 | 2 | / | / | /
Cc1cccc(-n2c(Cc3cc(=O)[nH]c(=O)[nH]3)nnc2SCC(=O)NCC2CCCO2)c1 (configuration not stated) | 5.0 | / | 0.5 | / | 1 | -5 | 4 | 19 | 16 | -1.2
CSc1cccc(NC(=O)CN(c2cc(C)ccc2C)S(C)(=O)=O)c1 | -2.7 | 0 | -0.3 | -3 | 2 | -9 | 1 | / | / | /
CSc1ccc(CN2CCCC(CNC(=O)c3ccc(F)cc3)C2)cc1 (configuration not stated) | 2.1 | 63* | 0.9 | -13 | 0 | / | 24 | 11 | 8 | 8.5
O=C(Nc1cccc(Cl)c1)OCCN1CCN(Cc2ccccc2)CCC1=O | 0.7 | -5 | -0.9 | 2 | 0 | 2 | 3 | / | / | /
COC(=O)c1sccc1NC(=O)CC1C(=O)NCCN1C(=O)c1ccc(F)cc1 (configuration not stated) | 2.0 | -5 | -0.3 | -2 | -1 | -7 | 9 | 9 | 8 | -2.8
Cc1nn(C)c(C(=O)N/N=C/c2cc3c(cc2Br)OCO3)c1Br | / | 0 | -2.6 | 8 | 2 | / | -7 | / | / | /
COc1ccc(OC)c(/C=C/C(=O)OCC(=O)N2CCCCC2)c1 | 2.6 | / | -0.3 | / | -3 | -9 | 4 | -6 | -4 | 1.7
CC(Oc1ccccc1Cl)C(=O)N(Cc1ccco1)C1CCS(=O)(=O)C1 (configuration not stated) | -0.5 | -16 | -0.4 | -1 | 0 | -1 | 0 | / | / | /
CC1CCN(C(=O)COC(=O)Cc2c[nH]c3ccccc23)CC1 | -11 | 1 | 0.5 | 3 | / | -10 | -4 | 2 | 9 | 4.7
COc1ccc(C(=O)COC(=O)c2cc(=O)[nH]c3ccccc23)c(OC)c1 | 3.7 | -7 | -0.3 | 3 | 4 | -1 | 3 | 11 | 5 | -1.5
C=CCNC(=O)c1ccccc1NC(=O)c1ccccc1N(C)S(C)(=O)=O | -0.8 | -1 | 0.0 | 0 | 2 | -21 | -5 | 11 | 9 | -0.5
Cc1cccc(N(Cc2ccccc2)C(=O)c2ccccc2F)c1 | -1.4 | 15 | 0.4 | -3 | 0 | -3 | 8 | -66 | -52 | -9.7
COc1ccc(NC(=O)CN2CCC(NC(=O)C3CCCCC3)CC2)cc1 | 6.5 | -2 | 0.1 | -34 | -7 | -6 | 7 | / | / | /
O=C(NCCO)/C(=C/c1cccc([N+](=O)[O-])c1)NC(=O)c1ccco1 | -2.9 | -17 | -0.9 | 5 | 4 | -20 | 12 | 15 | 14 | 1.2
Cc1c(Cl)cccc1N(CC(=O)NC1CCCCC1)S(C)(=O)=O | 3.7 | -8 | 0.1 | 0 | / | / | 2 | / | / | /
O=C(O/N=C1/CCSc2ccccc21)c1ccccc1 | -1.4 | 9 | -1.0 | 0 | 4 | -7 | -1 | / | / | /
Cc1ccc(CN2CCN(Cc3cccn3-c3ccc(Cl)cn3)CC2CCO)o1 (configuration not stated) | 1.1 | 10 | 0.3 | -3 | 3 | 4 | -1 | / | / | /
CCn1c2ccccc2c2nnc(SCC(=O)N3CC(C)OC(C)C3)nc21 (configuration not stated) | -2.9 | 0 | -0.5 | 0 | -3 | 6 | 0 | / | / | /
CC(=O)c1ccc(NC(=O)CCNC(=O)c2ccccc2Cl)cc1 | -4.2 | -3 | 1.6 | -1 | 3 | -12 | -2 | 13 | 8 | 0.2
COC(=O)c1ccc2nc(C)c(C)nc2c1 | -0.6 | -8 | -0.6 | 8 | -1 | 2 | 8 | / | / | /
CC(=O)n1nc(-c2ccco2)nc1N | 3.3 | -13 | 0.2 | 1 | -4 | 0 | -4 | / | / | /
O=C(CNS(=O)(=O)c1cccs1)N1CCN(c2ccccn2)CC1 | 3.1 | -7 | 0.8 | 0 | 0 | -17 | -8 | / | / | /

Compounds from the list above that have two or more sulfur atoms:
SMILES | LANA-H2B inh | T cruzi inh | Bfl-1 A1 inh | Calb FLC | Beta apoptosis | ALR H2O2 inh | Beta2AR agonist | rRNA inh HTS OD600 | rRNA inh HTS | rRNA inh HTS RFP
CSc1cccc(NC(=O)CN(c2cc(C)ccc2C)S(C)(=O)=O)c1 | -2.7 | 0 | -0.3 | -3 | 2 | -9 | 1 | / | / | /
O=C(CNS(=O)(=O)c1cccs1)N1CCN(c2ccccn2)CC1 | 3.1 | -7 | 0.8 | 0 | 0 | -17 | -8 | / | / | /

(further entries)
SMILES | LANA-H2B inh | T cruzi inh | Bfl-1 A1 inh | Calb FLC | Beta apoptosis | ALR H2O2 inh | Beta2AR agonist | rRNA inh HTS OD600 | rRNA inh HTS | rRNA inh HTS RFP
COc1ccccc1C(=O)Nc1ccnn1C1CCN(Cc2ncc[nH]2)CC1 | 0.8 | 6 | 0.1 | 2 | -9 | -3 | -14 | 1 | -1 | -2.1
CCOC(=O)CN1C(=O)/C(=C/c2ccc(Cl)cc2)Oc2ccccc21 | 1.9 | -13 | -0.5 | 29 | -3 | -3 | -5 | 4 | -5 | -2.1
COC(=O)C1=[N+]([O-])OC(C(=O)OC)C1c1c[nH]c2ccccc12 (configuration not stated) | 0.9 | -7 | 0.1 | -5 | -4 | 20 | 2 | -2 | 4 | -2.4
CCCCC(=O)NN(C)c1nc(-c2ccccc2)nnc1C(F)(F)F | -3.4 | -1 | 0.6 | -2 | 4 | 2 | -3 | / | / | /
CCOc1ccc(-c2ccc(SCC(=O)Nc3nnc(CC)s3)nn2)cc1 | 4.6 | / | -4.4 | -12 | -4 | -7 | -7 | 11 | 7 | 0.9
Cc1c(Cl)cccc1NC(=S)NCc1ccc(Cl)cc1 | 5.1 | -26 | 1.0 | 1 | -6 | -6 | 4 | 9 | 3 | -0.2
COC(=O)[C@H](Cc1ccccc1)NC(=O)[C@@]1(C)C[C@@H]1[C@@H](NC(=O)OCc1ccccc1)c1ccccc1 | -3.6 | 4 | 0.8 | -5 | -9 | -2 | 18 | -9 | -6 | -8.8
COc1cc(OC)c(OC)cc1CNCCSc1nnnn1C | -0.4 | -2 | -0.3 | 3 | -3 | -126 | -3 | 11 | 6 | -2.0
CCS(=O)(=O)c1ccc2oc(Nc3ccccc3C)nc2c1 | 0.0 | 2 | -12 | -5 | 14 | -2 | 7 | / | / | /
COc1cccc(CC2(CO)CCN(CC3=CC[C@H]4C[C@@H]3C4(C)C)CC2)c1 | 1.0 | / | 0.1 | 18 | 6 | / | 2 | -36 | -15 | 1.0
O=C(CSc1n[nH]c(=O)n1-c1ccccc1)Nc1ccccc1C(F)(F)F | 4.3 | -3 | 0.8 | -1 | / | / | -6 | 10 | 15 | 3.5
COc1cc([C@H]2c3[nH]c4ccccc4c3C[C@H]3C(=O)N4[C@@H](c5cc(OC)c(OC)c(OC)c5)c5[nH]c6ccccc6c5C[C@H]4C(=O)N23)cc(OC)c1OC | 0.4 | 53 | -0.2 | 6 | 13 | 1 | 23 | / | / | /
O=C(NNC(=O)C12CC3CC(CC(C3)C1)C2)[C@@H]1C[C@H]1c1ccccc1 | -1.4 | -4 | -0.1 | 2 | -3 | -12 | -14 | / | / | /
Cc1cc(NC(=O)CCC(=O)N(Cc2ccco2)C2(C(=O)NC3CCCCC3)CCN(C)CC2)no1 | 5.5 | 6 | -0.3 | 2 | -3 | -3 | -25 | / | / | /
C[C@]12c3[nH]c4ccccc4c3CCN1C(=O)C(CC(=O)NCCN1CCOCC1)C[C@@H]2C(=O)N1CCCCC1 (some centres not stated) | -4.1 | / | 0.1 | / | -5 | / | -7 | 6 | 23 | 2.6
CCc1nc(SCc2ccc(F)cc2)[nH]c(=O)c1C#N | -10 | / | 0.0 | / | 5 | 98* | 1 | -6 | -11 | -3.4
O=C(NCCc1ccc(O)c(O)c1)C1COc2ccccc2O1 (configuration not stated) | -4.0 | 2 | -0.4 | 0 | -6 | / | -2 | 1 | 5 | 1.3
O=C(COC(=O)c1ccc2c(c1)OCO2)NCc1ccc(Cl)cc1 | -0.3 | 1 | -1.3 | 6 | -9 | -1 | 4 | / | / | /
O=C1C2C3C=CC(C4CC34)C2C(=O)N1/N=C/c1cccs1 (configuration not stated) | -0.9 | 3 | 0.4 | -14 | -5 | 3 | -15 | / | / | /
CC1C/C(=C\c2cccnc2)C(=O)/C(=C/c2cccnc2)C1 (configuration not stated) | -2.4 | / | 1.7 | / | 3 | 96* | 13 | / | / | /
CCC(C)C(NC(=O)OC(C)(C)C)C(=O)NC(C)C(N)=O (configuration not stated) | 0.3 | -4 | 0.8 | -10 | 0 | -3 | 1 | 15 | 11 | 2.6
O=C(N/N=C/c1ccc(OC(=O)c2ccco2)cc1)c1ccncc1 | 7.2 | -5 | -0.7 | -7 | -1 | 18 | -1 | 16 | 12 | 0.0
O=C(c1cc(S(=O)(=O)N2CCCC2)c(Cl)cc1Cl)N1CCCC1 | 5.9 | 7 | 0.7 | -31 | 5 | -5 | 0 | 9 | 4 | -0.3
Cc1cc(OCC(O)CN2CCOCC2)cc(C)c1Cl (configuration not stated) | 0.1 | -6 | -0.5 | 5 | -11 | 4 | -4 | / | / | /
COCCNC(=O)NC(=O)COC(=O)c1cccn1C | -6.0 | 3 | -0.4 | -1 | -4 | -3 | 3 | 7 | 11 | 3.1
CC(CC(=O)N1CCN(S(=O)(=O)c2ccccc2)CC1)n1cncn1 (configuration not stated) | 0.9 | -8 | 0.4 | -4 | 1 | 2 | -1 | 1 | 5 | -1.7
CCC1(c2ccccc2)NC(=O)N(CC(=O)Nc2cc(S(=O)(=O)N3CCOCC3)ccc2OC(C)C)C1=O (configuration not stated) | -0.9 | 9 | 0.1 | 2 | / | 0 | 2 | -1 | -5 | 1.6
Cc1nn(CCCC(=O)NCc2ccc(F)cc2)c(C)c1[N+](=O)[O-] | -2.1 | -23 | 0.0 | 0 | -3 | 10 | -4 | 11 | 3 | -4.3
COc1cc(NC(=O)Cc2ccc(OC)c(S(=O)(=O)N3CCOCC3)c2)c(OC)cc1Cl | -1.6 | 9 | 0.3 | 0 | -3 | 3 | 1 | -8 | 1 | 3.2
COc1ccc(NC(=O)c2ccc(OCc3c(C)noc3C)c(OC)c2)cn1 | 4.4 | 7 | -2.1 | -5 | 3 | -6 | -5 | 3 | 12 | -4.3
O=C(Nc1ccccc1Cl)Nc1cccc2cccnc12 | 3.5 | 3 | 2.0 | -5 | 16 | -4 | 1 | -17* | -27* | -8.1*

These rows are one share of the data; rates above refer to the full screens.
